# Cruzain inh noDet: blocks cruzain activity in detergent-free assay; actives 2.3% (n = 200,000); purified cruzain, Z-FR-AMC fluorescence, no detergent; Potency, µM, for the others: max response, negative = inhibition, usual class: inhibitors; P25779; AID 1476;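 further: plate controls were enzyme without inhibitor for no effect and buffer without enzyme for full effect; nearly all actives have a fitted effect of over 40% in size; top concentration of the series not given in the record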
# Target sequence (P25779 123-467 limits assumed): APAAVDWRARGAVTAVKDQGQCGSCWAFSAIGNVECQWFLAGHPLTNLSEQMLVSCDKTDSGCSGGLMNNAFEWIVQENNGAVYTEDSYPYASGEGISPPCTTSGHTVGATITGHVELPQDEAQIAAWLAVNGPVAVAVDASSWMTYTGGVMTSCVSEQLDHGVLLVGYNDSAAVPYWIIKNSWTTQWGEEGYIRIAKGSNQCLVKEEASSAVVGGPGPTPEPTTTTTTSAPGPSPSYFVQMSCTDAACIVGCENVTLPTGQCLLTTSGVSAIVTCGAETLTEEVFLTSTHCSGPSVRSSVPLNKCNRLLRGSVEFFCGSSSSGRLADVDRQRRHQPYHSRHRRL
#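 Purified cruzain at 1.5 nM, pre-incubated 15 min with compound at room temperature in 100 mM sodium acetate pH 5.5, 5 mM DTT, 0.00005% Triton X-100. Reaction started with 2 uM Z-FR-AMC; AMC fluorescence increase over 60 s gives rate.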
# 2A StopGo: FMDV 2A StopGo reporter, luciferase signal; human cells with a luciferase reporter of 2A StopGo recoding; control for the full effect not named in the record; Potency, µM (top dose mostly 57.9 µM), for the others: at the highest dose signal change, negative = less light; actives 1.2% (n = 410,000); active = well fitted falling curve with a large enough effect; inconclusive = small, poorly fitted or top-dose-only effect; inactive = no such curve, though single readings can be large or run the other way; tested in HEK293T cells; further: on the % scale 0 is the no-effect control and ±100 the full control effect; nearly all actives have a fitted effect of over 45% in size; luciferase light after 4 h
# RE007 growth inh: less growth of the S. pombe RE007 Vpr strain; S. pombe RE007 Vpr strain, BacTiter-Glo ATP luminescence, 24 h; control for the full effect not named in the record; Potency, µM (top dose mostly 92.2 µM), inactives show top-dose activity change, negative = less growth; actives 0.21% (n = 360,000); active = well fitted falling curve with a large enough effect; inconclusive = small, poorly fitted or top-dose-only effect; inactive = no such curve, though single readings can be large or run the other way;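 further: on the % scale 0 is the no-effect control and ±100 the full control effect; nearly all actives have a fitted effect of over 50% in size; the assay follows cell death caused by Vpr and the record does not say whether a fall means rescue or toxicity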
#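 Fission yeast strain RE007, carrying one chromosomally integrated HIV-1 vpr copy, was seeded at OD 0.01 in PMG+AL medium with 23 nL pinned compound. After 24 h at 30 °C and 99% humidity, viability was read by BacTiter-Glo luminescence.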
# Marburg entry inh: Marburg virus entry inhibition | actives 1.8% (n = 300,000) | Marburg virus pseudotyped entry inhibition, cell reporter; control for the full effect not named in the record; about a third of the inactives were read at about 46 µM | Potency, µM (titrated, usually from 37.8 µM), without a hit: at the highest dose activity change, negative = inhibition, hits mostly inhibitors; active = well fitted inhibition curve with a large enough effect; inconclusive = small, poorly fitted or top-dose-only effect, or effect the other way; inactive = flat fitted curve, though single readings scatter; tested in HEK293 cells; about a fifth of its hits are not listed in these tables; further: on the % scale 0 is the no-effect control and ±100 the full control effect; luciferase read-out
# SARS PLpro yeast: inhibitors of SARS-CoV papain-like protease in yeast. actives 0.19% (n = 330,000). AID 485353. S. cerevisiae expressing SARS-CoV PLpro, growth rescue; control for the full effect not named in the record. Potency, µM (doses to about 32.9 µM), inactives show top-dose activity, positive = growth rescue; active means well fitted rising curve with a large enough effect; inconclusive means small, poorly fitted or top-dose-only effect; inactive means no such curve, though single readings can be large or run the other way; further: 0% is about no effect; nearly all actives have a fitted effect of over 55% in size; growth read by luminescence after 48 h
# Cruzain inh Det: cruzain (T. cruzi) inhibition with detergent | P25779 | purified cruzain, Z-FR-AMC fluorescence, 0.01% Triton | Potency, µM, for the others: max response, negative = inhibition, usual class: inhibitors | actives 0.43% (n = 200,000) | AID 1478;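 further: plate controls were neutral wells for no effect and buffer without enzyme for full effect; nearly all actives have a fitted effect of over 40% in size; top concentration of the series not given in the record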
#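 Z-FR-AMC hydrolysis (2 uM substrate) by cruzain (1.5 nM) monitored kinetically at ex 360/em 450 nm after 15 min room-temperature compound exposure; 0.01% Triton X-100, pH 5.5, 5 mM DTT.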
# NS1 function inh: influenza NS1 inhibition. S. cerevisiae slowed by influenza A NS1, growth recovery by OD600. actives 0.4% (n = 270,000). Potency, µM (doses to about 46.1 µM), inactives show at the top dose activity, positive = more growth; active means well fitted rising curve with a large enough effect; inconclusive means small, poorly fitted or top-dose-only effect; inactive means no such curve, though single readings can be large or run the other way; further: nearly all actives have a fitted effect of over 50% in size
#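 Growth recovery, yeast-based: influenza A NS1 expressed in S. cerevisiae causes slow growth, and suppressors are detected by OD600. The parent strain without NS1 is used as positive control.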
# LASV entry inh: Lassa virus entry inhibition; Lassa virus pseudotype entry inhibition, cell reporter; control for the full effect not named in the record; Potency, µM (highest dose often 37.9 µM), without a hit: top-dose activity change, negative = inhibition, hits mostly inhibitors; actives 1.2% (n = 300,000); AID 540256; active means well fitted inhibition curve with a large enough effect; inconclusive means small, poorly fitted or top-dose-only effect, or effect the other way; inactive means flat fitted curve, though single readings scatter; tested in HEK293 cells; further: on the % scale 0 is the no-effect control and ±100 the full control effect; nearly all actives have a fitted effect of over 50% in size; luciferase read-out
# Numbers without * were called inactive; ? = inconclusive; / = not tested or not shown; & = joins results of further samples; [ ] = another dose, or the depositor's remark. Unless noted, the call rests on the fitted dose curve; in most records, active means well fitted curve in the direction sought with a large enough effect; inconclusive means small, poorly fitted or top-dose-only effect, or another doubt; inactive means no such curve, though single readings can be large; an effect the other way counts as inactive or inconclusive. Potency means the concentration at half of the fitted maximal effect.
# Codes – A = Cruzain inh noDet; B = 2A StopGo; C = RE007 growth inh; D = Marburg entry inh; E = SARS PLpro yeast; F = Cruzain inh Det; G = NS1 function inh; H = LASV entry inh
Compound: CCCCN1C(=O)c2ccccc2C1C(=O)NC1CCCC1 (centres undefined)
  A: 6.3%	B: 7.3%	C: -1.2%	D: 0.4%	E: -9.1%	F: 4.0%	G: 3.6%	H: -1.3%

Compound: O=C(Nc1nnc(C2CC2)s1)C1COc2ccccc2O1 (centres undefined)
  A: /	B: 20.4%	C: -20.7%	D: ?	E: -6.8%	F: /	G: /	H: ?

Compound: Cc1ccc(C)c(NC(=O)CSc2nc3c(c(=O)n2C)SC(C)C3)c1 (centres undefined)
  A: -17.7%	B: ?	C: 16.4%	D: -4.7%	E: -13.9%	F: -2.7%	G: -89.2%	H: /

Compound: CC(=O)Nc1cccc(NC(=O)CS(=O)(=O)c2cn(CC(=O)N3CCOCC3)c3ccccc23)c1
  A: /	B: -12.4%	C: 0.3%	D: 8.2%[46.1 µM]	E: 2.1%	F: /	G: /	H: -20.8%

Compound: COC(=O)c1cccc(NC(=O)Cc2ccc(OC)cc2)c1C
  A: -2.7%	B: -6.7%	C: 5.2%	D: 0.0%	E: 8.9%	F: -3.5%	G: -3.3%	H: ?

Compound: CCCCc1c(O)nc(SCC(=O)N2CCCCC2)n(-c2ccccc2C)c1=O
  A: -1.3%	B: -2.4%	C: -8.3%	D: 0.0%[46.1 µM]	E: -3.1%	F: 1.4%	G: -0.4%	H: 11.5%

Compound: CCn1ncc(S(=O)(=O)Nc2cccnc2)c1C
  A: /	B: -4.5%	C: 9.0%	D: /	E: 3.8%	F: /	G: -1.1%	H: /

Compound: CC(=O)OCC1OC(OC(C)=O)C(NC(=O)c2cccnc2)C(OC(C)=O)C1OC(C)=O (centres undefined)
  A: -3.2%	B: -23.8%	C: -2.8%	D: -1.5%	E: -16.8%	F: 0.5%	G: 22.3%	H: -0.7%

Compound: C/C(=C\c1ccc2c(c1)OCO2)C(=O)c1c(C)cc(C)[nH]c1=O
  A: /	B: 24.3%	C: -4.0%	D: /	E: -0.1%	F: /	G: 5.9%	H: /

Compound: O=C1OC(c2ccc(Br)cc2)=N/C1=C\N1CCCCC1
  A: ?	B: 59.2%[activator]	C: -7.9%	D: ?	E: -2.5%	F: -8.6%	G: -9.9%	H: 6.6%

# 4 of the compounds above, as labelled records:
canonical_smiles: CCn1ncc(S(=O)(=O)Nc2cccnc2)c1C
  Cruzain inh noDet: /	2A StopGo: -4.5%	RE007 growth inh: 9.0%	Marburg entry inh: /	SARS PLpro yeast: 3.8%	Cruzain inh Det: /	NS1 function inh: -1.1%	LASV entry inh: /

canonical_smiles: O=C1OC(c2ccc(Br)cc2)=N/C1=C\N1CCCCC1
  Cruzain inh noDet: ?	2A StopGo: 59.2%[activator]	RE007 growth inh: -7.9%	Marburg entry inh: ?	SARS PLpro yeast: -2.5%	Cruzain inh Det: -8.6%	NS1 function inh: -9.9%	LASV entry inh: 6.6%

canonical_smiles: COC(=O)c1cccc(NC(=O)Cc2ccc(OC)cc2)c1C
  Cruzain inh noDet: -2.7%	2A StopGo: -6.7%	RE007 growth inh: 5.2%	Marburg entry inh: 0.0%	SARS PLpro yeast: 8.9%	Cruzain inh Det: -3.5%	NS1 function inh: -3.3%	LASV entry inh: ?

canonical_smiles: CCCCN1C(=O)c2ccccc2C1C(=O)NC1CCCC1 (centres undefined)
  Cruzain inh noDet: 6.3%	2A StopGo: 7.3%	RE007 growth inh: -1.2%	Marburg entry inh: 0.4%	SARS PLpro yeast: -9.1%	Cruzain inh Det: 4.0%	NS1 function inh: 3.6%	LASV entry inh: -1.3%

# Following part:
# Codes – A = Cruzain inh noDet; B = 2A StopGo; C = RE007 growth inh; D = Marburg entry inh; E = SARS PLpro yeast; F = Cruzain inh Det; G = NS1 function inh; H = LASV entry inh
Compound: Cc1cc(C)cc(NC(=O)C(NS(=O)(=O)c2cccc3nsnc23)c2ccccc2)c1 (centres undefined)
  A: 0.1%	B: ?	C: /	D: ?	E: /	F: -8.1%	G: /	H: -0.7%[46.1 µM]

Compound: COC(=O)C1=C(CSc2nc3ccccc3o2)NC(=O)NC1c1cc(C)ccc1C (centres undefined)
  A: -3.7%	B: -5.1%	C: -2.8%	D: ?	E: -6.7%	F: -5.7%	G: -74.0%	H: ?

Compound: CC(C)CCNC(=O)c1c2c(nc3ccccc13)C(=O)N(C1CCCCC1)C2
  A: 23.0%	B: -6.6%	C: /	D: /	E: /	F: -2.6%	G: /	H: 23.9%[46.1 µM]

Compound: COc1ccccc1C(=O)NNC1=C(C(=O)C(F)(F)F)CCC1
  A: -1.9%	B: /	C: -19.6%	D: ?	E: 0.0%	F: 3.1%	G: 19.6%	H: ?

Compound: Cc1cccnc1NCc1ccc(O)c2ncccc12
  A: ?	B: -28.4%	C: -20.1%	D: ?	E: ?	F: -10.6%	G: -38.5%	H: ?

Compound: Oc1c(C(Nc2cccc(C(F)(F)F)c2)c2ccncc2)ccc2cccnc12 (centres undefined)
  A: /	B: -16.4%	C: -26.2%	D: ?	E: ?	F: /	G: -6.5%	H: ?

Compound: Cc1nc2nc(SCC(=O)NCCCN3CCCCC3)nn2c(C)c1Cc1ccccc1
  A: /	B: -9.8%	C: -20.3%	D: ?	E: -6.8%	F: /	G: -1.4%	H: 1.2%[46.1 µM]

Compound: CN(C)CCCN1C(=O)CSC1c1ccc([N+](=O)[O-])cc1 (centres undefined)
  A: /	B: -15.9%	C: 13.8%	D: ?	E: -0.9%	F: /	G: -1.2%	H: 14.4%

Compound: N#Cc1nc(-c2ccccc2F)oc1NC1CCCCC1
  A: 30.1%	B: 13.0%	C: -7.3%	D: /	E: -6.5%	F: -6.4%	G: -11.4%	H: /

Compound: CCOc1ccccc1NC(=O)NNS(=O)(=O)c1cc(OC)ccc1OC
  A: /	B: -9.8%	C: -18.5%	D: 14.6%	E: 6.7%	F: /	G: -3.6%	H: 6.0%

# The results go on.
mol	Cruzain inh noDet	2A StopGo	RE007 growth inh	Marburg entry inh	SARS PLpro yeast	Cruzain inh Det	NS1 function inh	LASV entry inh
O=C(NNC(=O)c1ccccc1[N+](=O)[O-])c1ccccn1	/	0.0%	-13.8%	?	-0.8%	/	4.8%	2.1%
CN(CC(=O)Nc1ccccc1C(F)(F)F)C(=O)C1CCN(C(=O)c2ccc(Cl)cc2)CC1	/	9.1%	1.8%	2.4%	-5.5%	/	/	-5.5%
COc1cc(S(=O)(=O)NCc2ccccc2)ccc1-n1cnnn1	/	71.5%[activator]	1.3%	2.0%[46.1 µM]	-0.8%	/	-2.7%	/
COc1ccccc1NC(=O)N1CCCC(C(=O)Nc2cccc(C)c2C)C1 (centres undefined)	-8.2%	9.5%	8.4%	8.9%	-0.3%	1.1%	3.7%	-13.1%
COc1ccc(CC(=O)Nc2cccc(-c3cn4ccccc4n3)c2)cc1	-5.3%	-17.6%	4.6%	?	-36.5%	-6.1%	-52.4%	?
CN(C)CCn1c(NCc2ccc3c(c2)OCO3)nc2ccccc21	/	-14.3%	-3.7%	/	-3.6%	/	1.6%	/
C=CCNC(=O)CN1c2cccc3cccc(c23)S1(=O)=O	/	3.6%	2.4%	/	1.4%	/	-3.0%	/
Cc1ccc(N(Cc2ccccc2)C(=O)c2cccc(S(=O)(=O)N3CCN(C)CC3)c2)cc1	/	66.5%[activator]	3.3%	-21.4%	-1.6%	/	/	2.6%
Cn1nc(C(=O)OCC(=O)Nc2ccc(SC(F)F)cc2)c2ccccc2c1=O	/	?	85.3%	2.5%	-12.5%	/	/	7.2%
Cn1ncc2c(NNC(=O)c3ccc(Cl)c(Cl)c3)ncnc21	1.9%	-5.2%	0.7%	4.4%	21.8%	-2.1%	-8.0%	-13.7%
O=C(CCNC(=O)c1ccco1)Nc1ccc(Cl)cc1F	/	12.4%	2.1%	11.6%[46.1 µM]	-0.4%	/	-4.3%	-4.3%
O=C(NC(=S)NC1CCSC1=O)c1ccccc1F (centres undefined)	7.3%	48.4%[activator]	2.3%	7.8%	-0.3%	-4.0%	20.8%	12.8%
CCOc1ccc(NC(=O)C(CC)n2nc(C)c3c(C)n(-c4ccccc4)nc3c2=O)cc1 (centres undefined)	-12.4%	-18.5%&-24.9%	3.7%	-18.2%&-18.2%[46.1 µM]	-4.7%	-4.2%	13.0%	-1.6%&-4.3%[46.1 µM]
CC(=O)N1CCc2cc(S(=O)(=O)NC(Cc3ccccc3)C(=O)NCc3ccc(C)cc3)ccc21 (centres undefined)	-2.9%	12.1%	/	?	/	-3.3%	/	-10.9%[46.1 µM]

# Structural class, the compounds so far containing two or more sulfur atoms
mol	Cruzain inh noDet	2A StopGo	RE007 growth inh	Marburg entry inh	SARS PLpro yeast	Cruzain inh Det	NS1 function inh	LASV entry inh
Cc1ccc(C)c(NC(=O)CSc2nc3c(c(=O)n2C)SC(C)C3)c1 (centres undefined)	-17.7%	?	16.4%	-4.7%	-13.9%	-2.7%	-89.2%	/
Cc1cc(C)cc(NC(=O)C(NS(=O)(=O)c2cccc3nsnc23)c2ccccc2)c1 (centres undefined)	0.1%	?	/	?	/	-8.1%	/	-0.7%[46.1 µM]
O=C(NC(=S)NC1CCSC1=O)c1ccccc1F (centres undefined)	7.3%	48.4%[activator]	2.3%	7.8%	-0.3%	-4.0%	20.8%	12.8%
